# HIV TAR-Tat: TAR RNA-Tat peptide displacers, HIV-1, primary screen, biochemical, FRET, FAM/TAMRA-labeled Tat | HIV-1 TAR RNA, Tat peptide displacement FRET; stronger effect = higher value | z-score (no concentration beside the values) | 0.6% of 100,000 active;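 also: score is relative to mean and SD of negative controls; some compounds called inactive have numbers as strong as hits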
# CDC25B CDK2 inh: primary biochemical HTRF screen for blockers of M-phase inducer phosphatase 2 binding to CDK2/cyclin A | HTRF CDC25B-CDK2/CyclinA binding, anti-His/anti-Flag; stronger effect = higher value | z-score (concentration not given with the values) | 0.72% of 94,000 active | AID 1259370, 2018;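 also: score is relative to mean and SD of negative controls; strong numbers were not always called active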
# * = called active by the depositor; nt = not tested or not shown.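 The calls were made as follows: active = z-score from 3 up in half or more of its runs; inactive = the rest.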
# Results follow in this order: HIV TAR-Tat	CDC25B CDK2 inh
- Cc1cc(C(=O)NNC(=O)Cc2ccccc2F)nn1C(C)(C)C
    nt	-1.8
- CN(C)c1ccc(-c2nc3n(n2)C(c2ccc(Cl)cc2)C2=C(CC(C)(C)CC2=O)N3)cc1 (stereo not drawn)
    -0.04	-0.84
- Cn1c(=O)[nH]c(=O)c2c1nc(N1CCN(Cc3ccccc3)CC1)n2CCSc1ncccn1
    nt	0.28
- O=C(COc1ccc(Cl)cc1)Nc1nc(-c2cccs2)cs1
    0.77	nt
- COc1ccc(C2C(=O)c3ccccc3C2=O)cc1OC
    1.1	-1.6
- Cc1nc(N2CCCC2)cc(N2CCN(C(=O)c3cccs3)CC2)n1
    -0.36	-2.7
- CCC(C)N1CCN(C(=O)C2CCN(S(=O)(=O)c3c(C)noc3/C=C/c3ccco3)CC2)CC1 (stereo not drawn)
    0.45	-0.34
- CCOC(=O)CC1OC(=O)c2cc3c(cc21)C(=O)OC3CC(=O)OCC (stereo not drawn)
    nt	-0.04
- COC1=C(O)C(=O)c2c(cc3oc(C(C)=O)c(O)c3c2O)C1=O
    2.1	nt
- CSc1ccccc1NC(=O)C1=CC(c2ccc3c(c2)OCO3)=NS(=O)(=O)N1C
    2.3	-1.9
- O=C(O)C(Cc1ccccc1)NS(=O)(=O)c1cccc2nsnc12 (stereo not drawn)
    nt	-0.7
- CCn1cc(S(=O)(=O)c2ccc(C)cc2)c(=O)c2cc(C)ccc21
    1.4	-1.6
- CCCC12CN3CC(CCC)(CN(C1)C3c1cc(Br)ccc1O)C2=O (stereo not drawn)
    -0.95	-0.11
- COc1ccccc1-c1cc(=O)c2c(OC)cccc2o1
    1.7	nt
- O=C(c1nn2c(c1Cl)NC(c1ccc(Br)cc1)CC2C(F)(F)F)N1CCOCC1 (stereo not drawn)
    0.31	-2.7
- Cc1[nH]nc2c1C(c1cccs1)NC2=O (stereo not drawn)
    0.69	-2.4
- CC1(C)CC(=O)C2=C(C1)NC1=C(C(=O)c3ccccc31)C2c1cccc(OC(=O)Cc2ccccc2)c1 (stereo not drawn)
    nt	-0.39
- CN(C)CCNC(=O)Cc1c(C(=O)O)n(C)c2ccccc12
    nt	-0.51
- O=S(=O)(c1ccc2nc(N3CCN(c4ccccc4F)CC3)cnc2c1)N1CCCCC1
    2.4	-0.41
- O=C(c1noc2ncnc(N3CCOCC3)c12)N1CCN(c2ccc(F)cc2)CC1
    -0.91	nt
- COCCn1c(C2CC(=O)N(c3ccccc3F)C2)nc2ccccc21 (stereo not drawn)
    0	0.54
- CC1=C(C#N)C(c2ccccc2OC(C)C)C2=C(CC(c3ccccc3)CC2=O)N1 (stereo not drawn)
    0.53	-0.77
- CC1(C)OC2OC(C(=O)Nc3ccc(Cl)cc3)C3OC(C)(C)OC3C2O1 (stereo not drawn)
    nt	-0.62
- Cc1cc2cc(N(C(=O)c3ccncc3)S(=O)(=O)c3cc(C)c(C)cc3C)ccc2o1
    1.2	-1.6
- COc1cc(C2Nc3cccc4cccc(c34)N2)ccc1O
    7.3*	0.77
- COc1cccc(-c2coc3c2c(C)cc2oc(=O)c4c(c23)CCC4)c1
    nt	-0.84
- O=C(CSc1nnc(CNC(=O)c2ccco2)n1-c1ccc(F)cc1)Nc1ccc(F)cc1
    nt	-1.2
- COc1cccc(NC(=O)c2cnn(C)c2-n2cccc2)c1
    nt	0.08
- CCCc1nn2c(=O)c(NC(=O)c3ccc(F)cc3)cnc2s1
    -1.4	-0.78
- N#Cc1c(Cl)c(Cl)c(Cl)c(Cl)c1C#N
    nt	-1.5
- O=C(NCc1cccc(Br)c1)c1cc(-c2cccnc2)nc2ccccc12
    -0.27	nt
- CCN(CC)C(=O)n1cnc2cc(C)c(C)cc21
    2	-1.9
- COc1cccc(NC(=O)Nc2cccs2)c1
    -0.08	1.6
- CCN(CC)c1ccc(/C=C/c2noc(-c3ccccc3O)n2)cc1
    -3.9	-0.25
- COC(=O)c1cnc(Sc2n[nH]c(=O)n2-c2ccc(Cl)cc2)c([N+](=O)[O-])c1
    nt	0.75
- CSc1nnc2c(n1)OC(c1ccc(Cl)cc1)N(C(C)=O)c1ccccc1-2 (stereo not drawn)
    -0.37	-1.2
- CS(=O)(=O)N1CCCc2ccc(NS(=O)(=O)c3ccccc3Cl)cc21
    1.4	nt
- Cc1cc(C)nc(N2CCN(c3cc(C)nc4c(-c5ccc(F)cc5)c(C)nn34)CC2)n1
    -0.05	1.8
- COCCn1c(CN2CC(C)CC(C)C2)nc2c1c(=O)n(C)c(=O)n2C (stereo not drawn)
    1.1	-2
- Cn1ncc2c(N3CCCC3)nc(N3CCN(Cc4ccccc4)CC3)nc21
    3.8	nt
- Cc1noc(-c2ccc(C)c(S(=O)(=O)N3CCc4ccccc4C3)c2)n1
    0.69	nt
- CCCCCCCNC(=O)C(C)CCO (stereo not drawn)
    nt	-2.8
- COc1c(Br)csc1C(=O)O/N=C(\N)c1ccc(C(F)(F)F)cc1
    nt	-1.7
- COc1cc2c(cc1OC)C(COc1ccc(F)cc1)N(C(C)=O)CC2 (stereo not drawn)
    nt	-2.8
- N#Cc1cnn(C(=O)c2ccc(Cl)cc2)c1C1CC1
    nt	-3.5
- Cc1ccc(S(=O)(=O)NCc2ccc(-c3nn4cnnc4s3)cc2)cc1
    0.52	nt
- O=S1(=O)CCCCN1c1ccc(S(=O)(=O)N2CCCc3ccccc32)cc1
    -0.55	nt
- Cn1c2c(c(=O)n(C)c1=O)CN(Cc1c(F)cccc1Cl)CN2
    nt	-2.4
- CCCN1CCN(CCNC(=O)Nc2cc(F)ccc2F)CC1
    2	-3.3
- NNC(=S)Nc1cccc(Cl)c1
    nt	-1.2
- COc1ccc(-c2ccc(NS(=O)(=O)c3ccc4c(c3)CCCC4)cc2)nn1
    1.3	nt
- O=C(O)c1cnc2ccc(Cl)cc2c1N1CCOCC1
    1.1	-0.78
- COc1ccc(Cl)cc1-n1c(=O)c(C#N)cc2c(=O)n3ccccc3nc21
    -4.5	-0.77
- Cc1cc2nc(CSc3ccc(Cl)cc3)cc(=O)n2o1
    -0.22	0.01
- CCCN(Cc1cccs1)C(=O)Nc1cccc(Br)c1
    -1.8	1.4
- CCCCc1c(O)nc(SCC(=O)NCc2ccco2)[nH]c1=O
    0.74	4.4*
- CCOC(=O)N1CCC(Nc2c(N(C)Cc3ccco3)c(=O)c2=O)CC1
    -0.4	-0.29
- COCCNC(=O)Cn1c(-c2cccs2)cc2ccccc21
    0.74	2.1
- O=C(O)CSCCS(=O)(=O)c1ccc(Cl)cc1
    nt	-1
- CC1CCCCN1S(=O)(=O)c1ccc2c(c1)NC(=O)CC(=O)N2 (stereo not drawn)
    -0.96	nt

# Shown as tab-separated lines: 4 of the compounds above.
smiles	HIV TAR-Tat	CDC25B CDK2 inh
CC1CCCCN1S(=O)(=O)c1ccc2c(c1)NC(=O)CC(=O)N2 (stereo not drawn)	-0.96	nt
COc1c(Br)csc1C(=O)O/N=C(\N)c1ccc(C(F)(F)F)cc1	nt	-1.7
CCN(CC)C(=O)n1cnc2cc(C)c(C)cc21	2	-1.9
CCn1cc(S(=O)(=O)c2ccc(C)cc2)c(=O)c2cc(C)ccc21	1.4	-1.6

# (next part)
# Results follow in this order: HIV TAR-Tat	CDC25B CDK2 inh
- Cc1nc(C(=O)Nc2cccc(OC(C)C)c2)c(C(F)(F)F)o1
    nt	-3.2
- O=C(NC1CCCN(c2nc3ccccc3s2)C1)N1CC=CCC1 (stereo not drawn)
    1.4	-0.99
- COc1ccc(C2CC(c3cc(Cl)ccc3O)=NN2)cc1 (stereo not drawn)
    0.72	-1.7
- Cc1cc(N(CCO)CCO)n2ncnc2n1
    -3.5	-1.1
- Cc1c(C(=O)N(Cc2ccccc2F)C2CCS(=O)(=O)C2)oc2cc(Br)ccc12 (stereo not drawn)
    1.9	-0.19
- Cc1nnsc1C(=O)Oc1ccc(C(C)C)cc1
    -0.2	-1.2
- CCc1ccn2cc(-c3ccc4c(c3)OCO4)nc2c1
    nt	-0.18
- CCN(CC)CCNc1ccc(CO)c2sc3ccccc3c(=O)c12
    2.3	nt
- COC(=O)c1sc(SC)c(-c2ccn(S(=O)(=O)c3ccc(F)cc3F)n2)c1C
    nt	0.9
- Cn1c(C(=O)NCc2ccco2)c(N2CCCC2=O)c2cc(F)ccc21
    -0.07	nt
- O=c1c2nccnc2nc(SCc2cccc(F)c2)n1CCc1ccccc1
    -0.51	0.13
- O=C(Nc1ccc(Oc2cccc(C(F)(F)F)c2)nc1)c1ccc2c(c1)CCO2
    nt	-0.81
- O=C(C1CCN(c2ncnc3c2sc2cccc(F)c23)CC1)N1CCC2(CC1)OCCO2
    nt	-1.7
- CCCCCCCCCCCCCCCCCCN(CCCCCCCCCCCCCCCCCC)CCCN(CCO)CCO
    nt	0.66
- Cc1cc(C)c(Nc2nc3ccccc3n3nnnc23)c(C)c1
    -0.45	-0.82
- CCCN1CCN(c2cc3c(cc2F)c(=O)c(S(=O)(=O)c2ccccc2)cn3CCC)CC1
    0.61	nt
- CCc1ccc(Nc2nc3ccccc3c3nnc(C)n23)cc1
    -1	nt
- O=C(Nc1ccc(Br)cc1)c1cccs1
    nt	-0.59
- CC1CCCC(NC(=O)CN2C(=O)c3cccnc3Oc3ccc(Cl)cc32)C1C (stereo not drawn)
    0.41	nt
- CCOCCCNC(=O)c1oc2ccc3c(c2c1C)C(=O)CC1(CCCCC1)O3
    1.6	0.23
- Fc1cc(F)cc(-c2noc3ncnc(NCc4ccccn4)c23)c1
    0.11	nt
- O=C(Cn1cnc(S(=O)(=O)N2CCc3ccccc32)c1)NCc1ccco1
    -0.52	nt
- CCn1c2ccccc2c2cc(CN3CCN(Cc4cccc(OC)c4)CC3)ccc21
    nt	6.7*
- Cc1ccc2nc(NCCN3CCOCC3)c(-n3nc(C)cc3C)nc2c1
    0.11	-0.24
- CC(CCc1ccccc1)NC(=O)c1ccc(Cl)c(NC2=NC3CS(=O)(=O)CC3S2)c1 (stereo not drawn)
    1.2	nt
- O=C(CSc1nnc(-c2ccccc2)c(-c2ccccc2)n1)N1CCOCC1
    0.46	-1.4
- COc1cc(NC(=O)c2cn3c4c(ccc(Cl)c4c2=O)OC(C)C3)cc(OC)c1 (stereo not drawn)
    0.39	nt
- CCc1cc2c(Nc3ccccc3F)ncnc2s1
    -0.04	nt
- CC(C)CC(NC(=O)C1CCC(C)CC1)C(=O)NCc1ccccn1 (stereo not drawn)
    -1.8	-3.8
- C=CCNC(=O)Cc1c(O)c2ccccc2[nH]c1=O
    1.6	nt
- O=C(O)CC(O)CNC(=O)c1ccccc1 (stereo not drawn)
    nt	-0.74
- Cc1cc(-c2nnc(C(F)(F)F)o2)ccc1-n1cccc1
    nt	-0.59
- O=C(CN1c2ccccc2S(=O)(=O)c2ccccc21)NCc1cccs1
    -0.43	nt
- Cc1cc(C2CC(=O)Nc3ccccc3S2)c(C)s1 (stereo not drawn)
    nt	-2.2
- Oc1[nH]c2ccccc2c1N=Nc1nc(-c2ccccc2)c2cc(Br)ccc2n1
    nt	-2.9
- COc1ccc(Cc2nc3c4cnn(-c5ccccc5Br)c4ncn3n2)cc1
    2.8	-0.32
- CCN1C(=O)C(O)(C2COC(C)(C)CC2=O)c2ccccc21 (stereo not drawn)
    nt	-0.03
- CC(C)Cc1ccc(S(=O)(=O)n2cnc3ccccc32)cc1
    0.43	-1.5
- CCc1c(C)nc2nncn2c1Nc1ccc(C(C)C)cc1
    0.64	-0.26
- NC(N)=N/N=C/c1c(Cl)cccc1Cl
    nt	-2.7
- CN1CCN(C(=O)c2oc3ccccc3c2NC(=O)C2CCCC2)CC1
    1.2	nt
- Oc1ccc(Nc2nc(-c3ccccc3)cs2)cc1
    0.43	-2.2
- Cc1ccc(C(C)C)c(OCCN2C(=O)C(=O)c3cccc(C)c32)c1
    1.2	0.29
- Cc1ccc(NC(=O)CSCc2cc(=O)n3c(C)csc3n2)c(C)c1
    1.2	nt
- C=CCSc1nnc(NC(=O)c2cc(=O)c3cc(C)cc(C)c3o2)s1
    1.7	-1.6
- O=C(CCS(=O)(=O)c1cc(Br)cc2c1N(C(=O)C1CC1)CC2)NCc1ccccc1
    2.1	-2.5
- Fc1ccccc1-c1n[nH]c(=S)n1-c1ccccc1
    nt	-0.12
- O=C(NCC(c1ccco1)N1CCCC1)c1sc2ccccc2c1Cl (stereo not drawn)
    -1.1	-0.27
- Fc1ccc2c(c1)-c1nocc1CS2
    nt	-1
- Cc1nn(-c2nncc(-c3ccc(Cl)cc3)n2)c2c1C(c1ccc3c(c1)OCO3)CC(=O)N2 (stereo not drawn)
    2.7	-1.5
- C=CCSc1ncc(Cl)c(C(=O)Nc2ccc(F)cc2)n1
    0.17	-2.1
- COC(=O)c1ccc(C(=O)OC)c(NC(=O)c2cc(-c3cccc(Br)c3)nc3ccccc23)c1
    nt	-3.2
- CC1=C(C(=O)Nc2cc(C)ccn2)C(c2ccc3c(c2)OCO3)C2=C(CCCC2=O)N1 (stereo not drawn)
    1.7	-1.1
- CCCN1C(=O)c2[nH]nc(-c3ccc(F)cc3)c2C1c1ccc(O)cc1 (stereo not drawn)
    0.84	3.9
- CC(C)CCN(Cc1ccco1)C(=O)c1noc2c1COc1ccccc1-2
    1.5	-1.9

# Among those listed so far, 5 contain a COOH group.
# Results follow in this order: HIV TAR-Tat	CDC25B CDK2 inh
- O=C(O)C(Cc1ccccc1)NS(=O)(=O)c1cccc2nsnc12 (stereo not drawn)
    nt	-0.7
- CN(C)CCNC(=O)Cc1c(C(=O)O)n(C)c2ccccc12
    nt	-0.51
- O=C(O)c1cnc2ccc(Cl)cc2c1N1CCOCC1
    1.1	-0.78
- O=C(O)CSCCS(=O)(=O)c1ccc(Cl)cc1
    nt	-1
- O=C(O)CC(O)CNC(=O)c1ccccc1 (stereo not drawn)
    nt	-0.74

# No enrichment for hits; about 0.97% have a hit in one of these screens.
